Screening results deposited in PubChem BioAssay by National Center for Advancing Translational Sciences (NCATS).
EPAC1 agonist – human EPAC1 agonism, validation; O95398; EPAC1 Rap1b BODIPY-GDP exchange, fluorescence; Potency, µM, for the others: max response, positive = active, usual class: activators; hit rate 1% among 16,000; active = well fitted activation curve with a large enough effect; inconclusive = small, poorly fitted or top-dose-only effect; inactive = no such curve, though single readings can be large or run the other way;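 also: nearly all actives have a fitted effect of over 70% in size; series mostly up to about 76 or 150 µM; scaled to a cAMP control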
Target sequence (O95398 whole entry, looked up): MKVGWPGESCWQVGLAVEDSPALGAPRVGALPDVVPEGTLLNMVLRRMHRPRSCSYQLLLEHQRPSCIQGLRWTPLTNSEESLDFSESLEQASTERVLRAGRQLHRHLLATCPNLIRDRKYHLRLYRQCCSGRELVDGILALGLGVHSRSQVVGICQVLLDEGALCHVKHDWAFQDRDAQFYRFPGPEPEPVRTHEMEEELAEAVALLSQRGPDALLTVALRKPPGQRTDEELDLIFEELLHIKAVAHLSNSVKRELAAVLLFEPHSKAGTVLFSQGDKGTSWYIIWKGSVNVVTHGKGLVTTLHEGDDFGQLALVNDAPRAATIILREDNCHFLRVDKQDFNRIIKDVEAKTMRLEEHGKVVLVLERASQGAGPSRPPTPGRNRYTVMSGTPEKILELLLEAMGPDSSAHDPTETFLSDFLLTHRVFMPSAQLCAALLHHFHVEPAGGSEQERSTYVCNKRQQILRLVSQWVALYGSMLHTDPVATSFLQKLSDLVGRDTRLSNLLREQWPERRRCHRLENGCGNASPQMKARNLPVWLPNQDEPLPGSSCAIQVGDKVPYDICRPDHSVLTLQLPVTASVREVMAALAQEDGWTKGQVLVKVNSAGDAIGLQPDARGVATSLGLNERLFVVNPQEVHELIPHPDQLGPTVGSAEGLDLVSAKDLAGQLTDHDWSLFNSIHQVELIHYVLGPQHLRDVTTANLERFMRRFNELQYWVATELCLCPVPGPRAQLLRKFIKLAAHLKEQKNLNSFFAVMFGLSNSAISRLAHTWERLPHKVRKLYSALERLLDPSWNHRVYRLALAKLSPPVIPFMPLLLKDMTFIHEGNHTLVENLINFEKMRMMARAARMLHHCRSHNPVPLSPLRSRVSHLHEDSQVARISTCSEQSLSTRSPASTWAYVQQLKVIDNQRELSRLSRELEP
Numbers without * were called inactive; ? = inconclusive; & = joins results of further samples; [ ] = remark or other dose. % is scaled to controls: 0 for no effect and ±100 for the full control effect; potency is read from the fitted curve at half-maximal effect.

SMILES	EPAC1 agonist
COc1cc(-c2c(-c3ccc4c(c3)OCO4)noc2-c2ccsc2)ccc1F	25%
CC(C)C[C@H](NC(=O)N1CCCCCC1)C(=O)N[C@H](Cc1cn(C)c2ccccc12)C(=O)N[C@H](Cc1ccccn1)C(=O)O	-4%
c1ccc(C(c2ccccc2)N2CC3(CCNCC3)C2)cc1	-15%
Cc1[nH]c(=O)c(C#N)cc1-c1ccncc1	-7%&-23%&-8%&9%
COc1ccc(-c2nc3cnc(N(C)C)nc3n(CCC#N)c2=O)cc1	?
COC(=O)N1CCC2(CCCN(Cc3ccc(C#N)cc3)C2)CC1	-30%
CCOc1cc(CC(=O)N[C@@H](CC(C)C)c2ccccc2N2CCCCC2)ccc1C(=O)O	-18%
Cc1ccc(C)c(S(=O)(=O)NCc2nc(N3CCCC3)c3cc(Cl)ccc3n2)c1	18%
O=[N+]([O-])c1ccc2c(c1)S(=O)(=O)C=C2	19%
O=C1CC(c2ccc(O)cc2)Oc2ccccc21 (configuration not stated)	-12%
O=C(c1ccncc1)N1CCC2(CC1)CCN(c1ccc(-c3ccccc3)cc1)CC2	-64%[inhibitor]
COc1ccc(NC(=O)N2CC[C@@]3(CCCN(C(C)=O)C3)C2)cc1	-31%[inhibitor]
CS(=O)(=O)N1CCC[C@@]2(CCN(Cc3nccs3)C2)C1	-85%[inhibitor]
Cc1cnc(CNc2ncnc3ccc(-c4ccccc4C#N)cc23)cn1	6%
COc1cc([C@@H]2c3cc4c(cc3C(O[C@@H]3O[C@@H]5COC(c6cccs6)O[C@H]5[C@H](O)[C@H]3O)C3COC(=O)[C@@H]32)OCO4)cc(OC)c1O (some centres not stated)	?
Cc1cnc(CNc2cc(-c3ccccc3C(F)(F)F)ncn2)cn1	2%
CCCCNC(=O)NS(=O)(=O)c1ccc(C)cc1	-4%&-9%&-7%&20%
COC(=O)c1cc(CNC(=O)c2cccc(F)c2)cc(NC(=O)c2ccccc2OC)c1	20%
Cc1cnc(-n2ncc(C(=O)NC(C)(C)CO)c2-c2cccs2)nc1-c1ccc(F)cc1	-7%
CCOc1ccc(/C=C/C(=O)c2cccs2)cc1	12%
CC(C)=CCC/C(C)=C/COc1ccc2ccc(=O)oc2c1	-23%
COc1c(N2CCNC(C)C2)c(F)cc2c(=O)c(C(=O)O)cn(C3CC3)c12 (configuration not stated)	?
O=c1c(CCc2ccccc2)nc2cnc(Oc3ccccc3)nc2n1C1CC1	-8%
Cc1nonc1CN(C)C(=O)C1CC12CCN(C(=O)/C=C/c1cccc(Cl)c1)CC2 (configuration not stated)	-6%
N#Cc1ccccc1-c1ccc2ncnc(NC3CC3)c2c1	-6%
SMILES	EPAC1 agonist
O=C(CO)[C@@H](O)[C@H](O)[C@@H](O)C(=O)O	1%
COC1=C(OC)C(=O)C(CC=C(C)CCC=C(C)CCC=C(C)CCC=C(C)CCC=C(C)CCC=C(C)CCC=C(C)CCC=C(C)CCC=C(C)CCC=C(C)C)=C(C)C1=O	-8%
CN(C)c1ccc(C=O)c(O)c1	?
O=c1cc(-c2cccc(O)c2)oc2cccc(O)c12	1%
O=C(Nc1ccccc1)N1CCCC2(CCN(C(=O)c3cnccn3)CC2)C1	42%
CN1CCN(c2ncc3nc(-c4cccc(C#N)c4)c(=O)n(Cc4ccc(F)cc4)c3n2)CC1	-59%[inhibitor]
COc1cccc(-c2ccnc(-n3ncc(C(=O)NCC(C)(C)CN(C)C)c3C)n2)c1	-11%
CN(CCc1ccc(Cl)c(Cl)c1)CCN1CCCC1	-13%&-11%
Cc1noc(C)c1-c1cc(NCc2cccnc2)ncn1	21%
O=C(Cn1ccnc1[N+](=O)[O-])NCc1ccccc1	-17%
O=C1C2=C(S[C@@H]3O[C@H](CO)[C@@H](O)[C@H](O)[C@H]3O2)C(=O)c2ccccc21	7%
CC(C)(CNC(=O)c1cnn(-c2nccc(-c3ccccc3F)n2)c1C1CC1)N1CCOCC1	-10%
CCOc1ccccc1CN1CCCC(c2nc(C)ncc2-c2ccc(F)cc2)C1 (configuration not stated)	-9%
CC(=O)OC1CC[C@@]2(C)C3CC[C@@]4(C)C(CC5O[C@@]6(CCC(C)CO6)C(C)C54)C3CC[C@@H]2C1 (some centres not stated)	12%
c1cncc(CNc2nc(-c3ccc4c(c3)OCO4)nc3ccccc23)c1	?
Cc1ccccc1-c1ccc2ncnc(NC3CC3)c2c1	-31%[inhibitor]
COC(=O)C(C)(N)Cc1ccc(O)cc1 (configuration not stated)	1%
COc1cc(OC)cc(C(=O)N2CCCC(n3cc(C(=O)NCC(C)C)nn3)C2)c1 (configuration not stated)	7%
CCc1nc(N)nc(N)c1-c1ccc(Cl)cc1	3%&1%
O=c1c(CCc2ccccc2)nc2cnc(N3CCOCC3)nc2n1C[C@H]1CCCO1	-49%[inhibitor]
CC(C)CN1CCCC2(CCN(C(=O)c3cc(C(F)(F)F)cc(C(F)(F)F)c3)CC2)C1	-91%[inhibitor]
CN(C)c1ncc2nc(-c3cccc(C#N)c3)c(=O)n(C[C@H]3CCCO3)c2n1	-16%
Fc1ccc(N2CCN(Cc3ccc4c(c3)CN(Cc3cccn3-c3ncccn3)CCO4)CC2)cc1	13%
O=C(O)CN(CCOCCOCCN(CC(=O)O)CC(=O)O)CC(=O)O	-4%&-3%
CN(C)C(=O)[C@@H]1C[C@@H](Sc2nc3ccccc3[nH]2)CN1Cc1ccc(Cl)cc1	1%
SMILES	EPAC1 agonist
CO[C@@H]1[C@@H](OC)[C@H](C)[C@@](O)(CC(=O)O)O[C@H]1[C@H](C)[C@H]1O[C@@]2(CC[C@@](C)([C@H]3CC[C@@](C)([C@@H]4O[C@@H]([C@H]5O[C@](C)(O)[C@H](C)C[C@@H]5C)C[C@@H]4OC4C[C@H](OC)[C@@H](OC)[C@H](C)O4)O3)O2)C[C@H](O)[C@H]1C (some centres not stated)	-53%[inhibitor]
Cc1cc(-c2ccnc(-n3ncc(C(=O)NCCc4cccnc4)c3C)n2)c(C)s1	-5%
CCOC(=O)C1=C(N)Oc2ccc(Br)cc2C1C(C#N)C(=O)OCC (configuration not stated)	-9%
COc1ccc(OC)c(-c2ccnc(-n3ncc(C(=O)NC(C)(C)CO)c3C3CC3)n2)c1	-9%
Cc1c(C)c2c(c(C)c1OC(=O)CCC(=O)OCCO)CC[C@@](C)(CCC[C@H](C)CCC[C@H](C)CCCC(C)C)O2	-240%[inhibitor]
CSc1ncccc1C(=O)NCCN1Cc2ccccc2OC(c2ccccc2F)C1 (configuration not stated)	20%
NCc1ccccc1CC(=O)N[C@@H]1C(=O)N2C(C(=O)O)=C(CSc3nnnn3CC(=O)O)CS[C@H]12	10%
CC1(C)OC2CC3C4CCC5=CC(=O)C=C[C@@]5(C)[C@]4(F)C(O)C[C@@]3(C)[C@]2(C(=O)CO)O1 (some centres not stated)	9%
O=Cc1ccc(Cl)cc1	?
CN(C)c1cc(NC(=O)CNC(C)(C)C)c(O)c2c1C[C@@H]1C[C@H]3[C@H](N(C)C)C(=O)C(C(N)=O)=C(O)[C@@]3(O)C(=O)C1=C2O	1%
COc1cccc(-c2nccc(NCc3cccc(C)c3)n2)c1	-119%[inhibitor]
COc1cc(=O)n2c(c1C(=O)N(C)Cc1nccs1)CCN(Cc1cccc(F)c1F)CC2	-4%
CCNc1ncc2nc(-c3cn(C)c4ccccc34)c(=O)n(-c3ccc(OC)cc3)c2n1	-44%[inhibitor]
CN(C)C(=O)c1ccc(-c2cc(N(C)Cc3ccco3)ncn2)cc1	0%
CC(C)C[C@@H](CO)N1CCN(Cc2cccc(C#N)c2)CCC1=O	-21%
CCC[C@H]1COCCS(=O)(=O)N1Cc1cccc(F)c1	-12%
N[C@@H](Cc1cnc[nH]1)C(=O)O	9%&-8%
C=CS(=O)(=O)N(Cc1ccccc1Br)[C@H](CO)Cc1ccccc1	12%
COc1ccccc1-c1ccc2ncnc(N3CCN(C)CC3)c2c1	-7%
CCCCC/C=C\C\C=C/C=C/C=C/[C@@H](SC[C@H](NC(=O)CC[C@H](N)C(=O)O)C(=O)NCC(=O)O)[C@@H](O)CCCC(=O)O	-6%
COC(C)C(C(=O)OCC1=CCN2CC[C@H](O)[C@@H]12)C(C)C (some centres not stated)	5%
COc1ccccc1-c1ccc2ncnc(Nc3ccccc3)c2c1	-1%
C[C@H]1CN(CCc2ccccc2)C(=O)[C@@H]1CC(=O)NCc1ccccc1	10%
N#Cc1cccc(-c2cc(NCc3ccccc3)ncn2)c1	-18%
CNC(=O)[C@H](Cc1c[nH]c2ccccc12)NC(=O)[C@@H](CC(=O)NO)CC(C)C	0%&-27%
SMILES	EPAC1 agonist
CC1(C)OC(=O)NC1=O	22%
COc1ccc(CNc2cc(-c3ccccc3C)ncn2)c(OC)c1	?
OC(CN1CCOCC1)c1ccccc1 (configuration not stated)	24%
COC(=O)[C@@H]1CCCN1Cc1ccc2c(c1)CN(Cc1ccccc1C)CCO2	-1%
CCCCCCC[N+](CC)(CC)CCCCc1ccc(Cl)cc1	-11%
CC(=O)Nc1cc(C(=O)N2CCSCC2)cc2ncn(CCc3ccccn3)c12	-5%
COc1ccccc1N1CCN(c2nc(CNC(=O)C3CCOC(C)(C)C3)nc3ccccc23)CC1 (configuration not stated)	12%
O=C1CCC[C@@H]2Cc3nc4cc5c(cc4cc3[C@@H]3CCN1[C@H]23)OCO5	-34%
COc1ccccc1CN1CCCC2(CCN(C(=O)c3csnn3)CC2)C1	?
C[C@H]1C[C@]2(O[C@@H]2C)C(=O)O[C@@H]2CCN(C)C/C=C(/COC(=O)[C@]1(C)O)C2=O	-10%
COC(=O)C1=C(C)NC(C)=C(C(=O)O[C@H]2CCN(Cc3ccccc3)C2)[C@H]1c1cccc([N+](=O)[O-])c1	?
Cc1ccccc1-c1cncnc1NCc1cccnc1	-16%
COc1ccccc1O	?
C[N+](C)(C)CCCCCNCC12CC3CC(CC(C3)C1)C2	-19%
c1nc(NC2CCNCC2)c2cc(-c3ccc4c(c3)OCO4)ccc2n1	-4%
CC(C)CN1CC2(CCN(S(=O)(=O)c3ccccc3)CC2)C1	-8%
CCC1CN(CC(=O)NCc2ccc3c(c2)OCO3)Cc2ccc(Cl)cc2O1 (configuration not stated)	-10%
O=C(O)[C@H](O)c1ccccc1	-7%
CC(C)(C)c1ccc(CN2CCN(C(c3ccccc3)c3ccc(Cl)cc3)CC2)cc1 (configuration not stated)	4%
CC[C@@H](C)[C@H]1O[C@]2(CC[C@H]1C)C[C@@H]1C[C@@H](CC=C(C)[C@@H](O[C@H]3C[C@H](OC)[C@@H](O[C@H]4C[C@H](OC)[C@@H](O)[C@H](C)O4)[C@H](C)O3)[C@@H](C)C=CC=C3CO[C@@H]4[C@H](O)C(C)=C[C@@H](C(=O)O1)[C@]34O)O2	-26%
O=C(NCCN1Cc2ccccc2OC(c2ccccc2F)C1)c1ccco1 (configuration not stated)	2%
CN(C)c1ccc(-c2nc(Nc3ccncc3)c3ccccc3n2)cc1	?
CCC1COCCS(=O)(=O)N1Cc1ccccc1 (configuration not stated)	-16%
COc1cccc(Nc2ncc3nc(CCc4ccccc4)c(=O)n(CCC#N)c3n2)c1	23%
NCCC[C@@H](N)C(=O)O	-12%
SMILES	EPAC1 agonist
O=c1c(-c2ccc(Cl)cc2)nc2cncnc2n1Cc1ccccc1	?
COc1cc(C2c3cc4c(cc3C(OC3OC5COC(C)O[C@@H]5C(O)C3O)C3COC(=O)C23)OCO4)cc(OC)c1O (some centres not stated)	?
CNC1C(O)C(O[C@H]2C(O)[C@@H](OC3OC(CN)=CCC3N)[C@H](N)C[C@@H]2N)OC[C@]1(C)O (some centres not stated)	-4%
COc1c2ccoc2nc2c(OC)c(OCC(O)C(C)(C)O)ccc12 (configuration not stated)	2%&17%
COc1ccc(-c2[nH]ncc2CN2CCOc3c(cc(-c4cccc(OC)n4)cc3OC)C2)cc1	-2%
CC(C)C1=CC2=CC[C@@H]3[C@](C)(CCC[C@@]3(C)C(=O)O)[C@H]2CC1	-68%[inhibitor]
COc1cc2c(cc1OC)C1C(=O)c3c(cc4c(c3O)C=CC(C)(C)O4)OC1CO2 (configuration not stated)	?
CCCCCCCCN1[C@@H](CC(C)=O)c2cc(C(F)(F)F)ccc2S1(=O)=O	-47%[inhibitor]
COc1ccccc1N1CCN(c2nc(CNC(=O)c3ccc(C)c(C)c3)nc3ccccc23)CC1	24%
CS(=O)(=O)Nc1cccc(-c2nc(NCc3cccs3)c3ccccc3n2)c1	?
COCC(=O)N1CCC2(CC1)CCN(c1ccccn1)CC2	-47%[inhibitor]
COc1ccc(-c2cc(=O)c3c(O)cc(O)cc3o2)cc1	-21%&8%

Only part of the results is shown; the hit share may differ from the screen's.
